# total CFTR – compounds raising F508del-CFTR protein level – cell-based, HeLa F508del-CFTR, immunofluorescence, viability, primary screen (AID 1224863); HeLa F508del-CFTR, immunofluorescence total CFTR, 24 h; by the record results were divided by relative cell number; some inactives read as strong as hits; calls, or highest fold increase where a dose series was run; 10,000 tested, 0.1% active; in the data nearly all actives have a first-pass fold increase above 1.5; a few of its hits are not listed in these tables;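 also: total CFTR protein by anti-CFTR immunofluorescence in fixed cells; first pass at 25 µM or 10 µg/mL by library and series up to twice that; 1 = untreated cells; first-pass hits also needed half or more of the cells alive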
# total CFTR fold 25 µM – second read-out of total CFTR, no call of its own (marks repeat the call); fold increase; measured here: primary screen single dose 25 uM; library dosed in µM
# total CFTR fold 10 ug/mL – second read-out of total CFTR, no call of its own (marks repeat the call); fold increase; measured here: primary screen 10 ug/mL
# total CFTR viability 25 µM – further read-out of total CFTR, marked with its call; viability, %; measured here: primary viability 25 uM; library dosed in µM;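 0% = killed and 100% = untreated cells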
# total CFTR viability 10 ug/mL – second read-out of total CFTR, no call of its own (marks repeat the call); viability, %; measured here: primary viability 10 ug/mL;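 0% = killed and 100% = untreated cells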
# Numbers without * were called inactive; i = inactive; . = not tested or not shown; & = joins results of further samples.
SMILES,total CFTR,total CFTR fold 10 ug/mL,total CFTR viability 10 ug/mL,others
COc1cc(OC)c(OC)cc1/C=C1\Cc2ccccc2C1=O,i,1,96,
O=C(c1c[nH]c2ccccc12)C(c1ccccc1)n1nnc(-c2ccccc2)n1 (centres undefined),i,0.77,76,
CCC1(c2ccccc2)NC(=O)N(C)C1=O (centres undefined),i,.,.,total CFTR fold 25 µM=1.2&0.98;total CFTR viability 25 µM=113&86
CC1Cc2cc([N+](=O)[O-])ccc2N1Cn1c(=O)oc2ccccc21 (centres undefined),i,0.84,82,
CC1CC1c1ccc(CNCc2ccc3c(c2)OCCO3)o1 (centres undefined),i,1,98,
CSCCC1NC(=O)N(CC(=O)N2CCSc3ccccc32)C1=O (centres undefined),i,1,95,
O=C(CCN1C(=O)C2CCCCC2C1=O)NCC1(N2CCOCC2)CCCCC1 (centres undefined),i,1,104,
Cc1c(C#N)c(SCCN2C(=O)NC(C)(C)C2=O)nc2c1CCC2,i,1,80,
CCOc1ccc(Br)cc1S(=O)(=O)N(C1CCCCC1)C1CC1,i,0.87,88,
COc1ccc2nc3cc(Cl)ccc3c(N(C)CCc3ccc(OC)c(OC)c3)c2c1,i,0.97,82,
CCCCC/C=C/CCC(=O)N[C@H]1[C@H](Oc2c3cc4cc2Oc2ccc(cc2Cl)[C@@H](O[C@@H]2O[C@H](CO)[C@@H](O)[C@H](O)[C@H]2NC(C)=O)[C@@H]2NC(=O)[C@H](NC(=O)[C@@H]4NC(=O)[C@H]4NC(=O)C(Cc5ccc(c(Cl)c5)O3)NC(=O)[C@H](N)c3ccc(O)c(c3)Oc3cc(O)cc4c3)c3ccc(O)c(c3)-c3c(OC4O[C@H](CO)[C@@H](O)[C@H](O)[C@@H]4O)cc(O)cc3[C@@H](C(=O)O)NC2=O)O[C@H](CO)[C@@H](O)[C@@H]1O (some centres undefined),i,.,.,total CFTR fold 25 µM=1.2;total CFTR viability 25 µM=86
N#Cc1ccsc1NC(=O)CCc1ccsc1,i,0.84,79,
C#CCN1CCN(c2ncnc3sc(C(=O)OCC)c(C)c23)CC1,i,0.97,101,
CC(C)COC1CCNCC1,i,1,96,
O=C(c1ccc(Br)o1)N1CCN(Cc2nc(-c3cccs3)no2)CC1,i,0.92,94,
O=NN(CCCl)C(=O)NCCCl,i,.,.,total CFTR fold 25 µM=1.1;total CFTR viability 25 µM=111
O=C(CC1CC2CCC1C2)N1CCN(c2cnccn2)CC1 (centres undefined),i,1,83,
O=C(O)c1ccccc1C(=O)Nc1ccc(S(=O)(=O)Nc2nccs2)cc1,i,.,.,total CFTR fold 25 µM=1;total CFTR viability 25 µM=77
CN(Cc1cc2c(cc1O)OCO2)Cc1ccccc1Br,i,0.99,104,
COc1cc(OC)cc(C(NS(=O)(=O)N2CCOCC2)c2nccn2C)c1 (centres undefined),i,1,89,
CN(Cc1nc2ccccc2c(=O)[nH]1)Cc1nc2sc3c(c2c(=O)[nH]1)CCC3,i,1,90,
Cc1cccc(-n2c(SCC(=O)C(C)(C)C)nc3ccccc3c2=O)n1,i,1.2,98,
CN(C)CCCN1C(=O)C(O)=C(C(=O)c2ccco2)C1c1ccc(F)cc1 (centres undefined),i,1,89,
CC(C)Nc1nnc(SCc2ccc(-n3cccn3)cc2)s1,i,1,90,
Cc1nc(SCCOc2ccc(F)cc2)n[nH]1,i,0.95,90,
O=S(=O)(Nc1cccc(S(=O)(=O)N2CCOCC2)c1)c1ccc2ccccc2c1,i,1.1,83,
Cc1cc(C(=O)NCCC2=CCCCC2)on1,i,0.92,92,
CNC(=O)Cn1cc(N)cn1,i,1,76,
CS(=O)(=O)c1ccc2nnn(OCc3cccc(F)c3)c2c1,i,1,97,
Fc1ccc(-c2nnc(Sc3ncnc4sccc34)o2)cc1,i,0.93,76,
CCN(CC)S(=O)(=O)c1ccc(S(=O)(=O)NC(C)(C)CC)cc1,i,0.95,90,
CNS(=O)(=O)c1ccc(CNc2ncnc3c2cnn3C)s1,i,1,86,
CS(=O)(=O)c1ccc(Cl)c(C(=O)OCC2CCCO2)c1 (centres undefined),i,1,95,
Cc1cc(C(=O)OC(C)C(=O)C23CC4CC(CC(C4)C2)C3)c2c(C)noc2n1 (centres undefined),i,0.92,97,
COc1ccc(S(=O)(=O)N2CCN(S(=O)(=O)c3ccc(Br)s3)CC2)cc1,i,1,99,
Cc1cccc(Nc2ccccc2C(=O)O)c1C,i,.,.,total CFTR fold 25 µM=1.1&1;total CFTR viability 25 µM=80&100
CN(C)S(=O)(=O)N1CCN(C(=O)NCCCc2nc3ccccc3[nH]2)CC1,i,0.89,96,
NC[C@H]1O[C@H](O[C@H]2[C@H](O)[C@@H](O[C@H]3O[C@H](CO)[C@@H](O)[C@H](N)[C@H]3O)[C@H](N)C[C@@H]2N)[C@H](N)[C@@H](O)[C@@H]1O,i,.,.,total CFTR fold 25 µM=1.2;total CFTR viability 25 µM=90
COc1cccc(C2CNC3(CCC(C(C)(C)C)CC3)c3[nH]c4ccccc4c32)c1OC (centres undefined),i,1,80,
CCC(NC(C)C)C(O)c1ccc(O)c(O)c1 (centres undefined),i,.,.,total CFTR fold 25 µM=1;total CFTR viability 25 µM=104
O=C(NCCCOCC1CCCO1)Nc1ccccc1[N+](=O)[O-] (centres undefined),i,1.1,106,
O=C(OCc1cccs1)C1=NN(C2CCS(=O)(=O)C2)C(=O)CC1 (centres undefined),i,1.2,94,
COC(=O)C(C)(C)NC(=O)c1ccsc1,i,0.81,81,
CO[C@H]1C[C@H](O[C@H]2[C@H](C)[C@@H](OC3O[C@H](C)C[C@H](N(C)C)[C@H]3OC(C)=O)[C@@H](C)C[C@]3(CO3)C(=O)[C@H](C)[C@@H](OC(C)=O)[C@@H](C)[C@@H](C)OC(=O)[C@@H]2C)O[C@@H](C)[C@@H]1OC(C)=O (some centres undefined),i,.,.,total CFTR fold 25 µM=1;total CFTR viability 25 µM=95
O=C1C2CC=CCC2C(=O)N1Cc1cc(Cl)c2c(c1)OCO2 (centres undefined),i,1,89,

# The last 2 records of the section above open the next one:
SMILES,total CFTR,total CFTR fold 10 ug/mL,total CFTR viability 10 ug/mL,others
CO[C@H]1C[C@H](O[C@H]2[C@H](C)[C@@H](OC3O[C@H](C)C[C@H](N(C)C)[C@H]3OC(C)=O)[C@@H](C)C[C@]3(CO3)C(=O)[C@H](C)[C@@H](OC(C)=O)[C@@H](C)[C@@H](C)OC(=O)[C@@H]2C)O[C@@H](C)[C@@H]1OC(C)=O (some centres undefined),i,.,.,total CFTR fold 25 µM=1;total CFTR viability 25 µM=95
O=C1C2CC=CCC2C(=O)N1Cc1cc(Cl)c2c(c1)OCO2 (centres undefined),i,1,89,
OCCN1CCN(c2nc(-c3cccnc3)nc3sc4c(c23)CCCC4)CC1,i,0.97,84,
OC1C(O)C(O)C(O)C(O)C1O (centres undefined),i,.,.,total CFTR fold 25 µM=1.1;total CFTR viability 25 µM=87
Cc1ccc(-n2c(C)nn(CN3CCCC3c3ccccc3)c2=S)cc1 (centres undefined),i,1.1,95,
O=C(COc1ccc2c(c1)CCC(=O)N2)NCC1(N2CCOCC2)CCCCC1,i,0.94,99,
CCn1c(SCCS(=O)(=O)c2ccc(Br)cc2)nc2ccccc21,i,0.65,74,
C=C(C)CN1C(=O)NC(C)(c2cccc3ccccc23)C1=O (centres undefined),i,1.1,73,
CN(C)c1cnccn1,i,.,.,total CFTR fold 25 µM=1.1;total CFTR viability 25 µM=109
C/C=C/C=C/C(=O)Nc1nnc(CC)s1,i,1.1,98,
C=C(C)COC(=O)c1ccc2cn[nH]c2c1,i,0.91,95,
COc1ccc(Cc2nnc(SC(C)c3nnc(-c4ccc(OC)cc4)o3)o2)cc1 (centres undefined),i,0.95,86,
O=C1C(=O)N(Cc2ccc(F)cc2)C(=O)N1Cc1ccccc1,i,1.1,100,
FC(F)(Cl)C(F)(F)Cl,i,.,.,total CFTR fold 25 µM=1.2;total CFTR viability 25 µM=99
COc1ccnc(N2CCN(S(=O)(=O)N3CCCC(C)C3)CC2)n1 (centres undefined),i,0.98,86,
CCc1cc2c(=O)n(CCCOC)c(SCC(=O)NC3(C#N)CCCC3)nc2s1,i,1.1,93,
C=CCNC(=O)C(=O)NCc1nnnn1CCC,i,1,101,
CCCCCCCCCCC[C@@H](C[C@H]1OC(=O)[C@H]1CCCCCC)OC(=O)[C@@H](CC(C)C)NC=O,i,.,.,total CFTR fold 25 µM=0.84;total CFTR viability 25 µM=87
O=S(=O)(NCc1ccc(S(=O)(=O)N2CCOCC2)cc1)C1=Cc2ccccc2CC1,i,1,88,
Cc1nn(Cc2nnc(-c3ccc(Br)o3)o2)c(C)c1[N+](=O)[O-],i,1.1,98,
CC(C)(C)OC(=O)N1CCN(C(=O)c2nc(N3CCCC3)ncc2Cl)CC1,i,1,99,
CCOC(=O)c1cn[nH]c1S(=O)(=O)N1CCCC1,i,1.1,94,
CN(C)C(=O)CSc1nnc(NCCc2cccs2)s1,i,1,106,
O=C(NCc1ccc(N2CCCC2)nc1)NCc1ccccc1CN1CCCC1=O,i,0.97,86,
CCN(CC)S(=O)(=O)N1CCN(C(C)C(=O)c2c(N)n(C)c(=O)n(C)c2=O)CC1 (centres undefined),i,1,88,
O=c1[nH]c2ccc(S(=O)(=O)N3CCCc4cc(F)cc(F)c43)cc2o1,i,1.1,87,
CC1CN(C(=O)Nc2ccccc2I)CC(C)O1 (centres undefined),i,1.1,102,
CN(Cc1ccc(F)cc1F)C(=O)NCc1ccccc1CN1CCCC1=O,i,1,81,
O=C1C(=Cc2cc(Br)cs2)C(=O)c2ccccc21,i,0.99,96,
Cn1c(SCC(=O)N2CCCC2)nc2ccsc2c1=O,i,1,101,
C=CCOc1ccc(C(C2C(=O)CC(C)(C)CC2=O)C2C(=O)CC(C)(C)CC2=O)cc1,i,1,93,
COc1ccc(N2CCN(c3ccc(C4SCCS4)cc3[N+](=O)[O-])CC2)cc1,i,1,81,
O=C1COc2ccc(S(=O)(=O)NC3CCOc4ccccc43)cc2N1 (centres undefined),i,1.3,88,
CC(C)C(CNS(=O)(=O)c1cc2c(cc1[N+](=O)[O-])OCCCO2)N1CCOCC1 (centres undefined),i,0.99,87,
CC1Oc2ccc(NC(=O)C3CC3(Cl)Cl)cc2NC1=O (centres undefined),i,0.97,93,
O=C1CCc2cc(S(=O)(=O)NCC3CC3)ccc2N1,i,0.99,102,
C=CCn1c(SC(C)C(=O)c2[nH]c(C)c(C(C)=O)c2C)nnc1-c1ccoc1C (centres undefined),i,0.98,94,
Brc1ccc(OCc2nnnn2C2CC2)c(Br)c1,i,0.96,90,
Nc1nnc(-c2cccc(Cl)c2Cl)c(N)n1,i,.,.,total CFTR fold 25 µM=0.94&1;total CFTR viability 25 µM=96&92
Cn1c(=O)c2ccccc2n2c(COc3ccc(F)cc3Br)nnc12,i,1,103,
O=C1C(=O)N(CN2CCN(c3ncccn3)CC2)c2ccccc21,i,1.1,117,
CN(Cc1nc2ccccc2s1)Cn1nnn(-c2cccs2)c1=O,i,1,94,
Cc1c(C)c(C)c(S(=O)(=O)N2CCN(S(=O)(=O)C3CCS(=O)(=O)C3)CC2)c(C)c1C (centres undefined),i,1,94,
CC[C@H](C)C(=O)O[C@H]1C[C@@H](C)C=C2C=C[C@H](C)[C@H](CC[C@@H]3C[C@@H](O)CC(=O)O3)[C@H]21,2.5,.,.,total CFTR fold 25 µM=1.4&1.5;total CFTR viability 25 µM=101&82
Cn1cc(C(=O)NC2CCCC2)cn1,i,0.91,93,
CC(C)(C)c1ccc(S(=O)(=O)O)cc1 (tested in a mixture with another compound),i,1,109,
Oc1c(Cl)cc(Cl)c(Cl)c1Cc1c(O)c(Cl)cc(Cl)c1Cl,i,.,.,total CFTR fold 25 µM=1.2;total CFTR viability 25 µM=91
COc1ccc(Br)cc1S(=O)(=O)NC(C)(C)C,i,1,96,
O=[N+]([O-])c1cc2c(c(CN(Cc3ccco3)S(=O)(=O)c3ccccc3F)c1)OCOC2,i,0.72,68,
NC(=O)c1oc2ccccc2c1NC(=O)COc1cccc(Br)c1,i,1,103,

# Structures shown so far that contain bromine (eleven):
SMILES,total CFTR,total CFTR fold 10 ug/mL,total CFTR viability 10 ug/mL,others
CCOc1ccc(Br)cc1S(=O)(=O)N(C1CCCCC1)C1CC1,i,0.87,88,
O=C(c1ccc(Br)o1)N1CCN(Cc2nc(-c3cccs3)no2)CC1,i,0.92,94,
CN(Cc1cc2c(cc1O)OCO2)Cc1ccccc1Br,i,0.99,104,
COc1ccc(S(=O)(=O)N2CCN(S(=O)(=O)c3ccc(Br)s3)CC2)cc1,i,1,99,
CCn1c(SCCS(=O)(=O)c2ccc(Br)cc2)nc2ccccc21,i,0.65,74,
Cc1nn(Cc2nnc(-c3ccc(Br)o3)o2)c(C)c1[N+](=O)[O-],i,1.1,98,
O=C1C(=Cc2cc(Br)cs2)C(=O)c2ccccc21,i,0.99,96,
Brc1ccc(OCc2nnnn2C2CC2)c(Br)c1,i,0.96,90,
Cn1c(=O)c2ccccc2n2c(COc3ccc(F)cc3Br)nnc12,i,1,103,
COc1ccc(Br)cc1S(=O)(=O)NC(C)(C)C,i,1,96,
NC(=O)c1oc2ccccc2c1NC(=O)COc1cccc(Br)c1,i,1,103,

# An excerpt. The share of hits here may be higher or lower than overall.
